# T cruzi repl: T. cruzi replication inhibition | T. cruzi beta-gal in NIH3T3, luminescence, 90 h | inhibition, % (no concentration beside the values) | actives 1.4% (n = 300,000);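 active = mean inhibition across valid replicates above about 55%, limit read from the data; inconclusive = mean below that limit but half or more replicates reach it; inactive = mean below it, under half of replicates reach it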;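 note: signal also drops with host cell toxicity which is not excluded here; 0% = plate median of DMSO wells and 100% = zero luminescence signal; higher percent means less beta-gal luminescence so fewer parasites; stock transfer was 50 nL into about 50 µL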
# RanGTP-Impb inh: inhibitors of RanGTP-importin-beta interaction, primary screen, biochemical, FRET, CFP-Ran, YFP-importin-beta, homogeneous; cell-free CFP-Ran/YFP-importin-beta FRET ratio; inhibition, % (concentration not given with the values); actives 1.1% (n = 300,000); AID 2216;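 active = most replicates above 15%; inconclusive = exactly half above 15%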;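 note: 0% = DMSO wells and 100% = Ran loaded with GDP instead of GTP; wells of about 40 µL received 100 nL stock; the first replicate is given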
# B2AR ag: agonists of human beta-2 adrenergic receptor inducing internalization; P07550; Am2.2-beta2AR cells, FAP receptor internalization, flow cytometry; reference of the scale not given here; response, % (no concentration beside the values); actives 0.43% (n = 340,000);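 active = response above a set limit, near 3 SD of response in nonfluorescent compounds, cut at about 42% in these data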;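 note: stock transfer was 100 nL into about 11 µL; a reference agonist was the positive control; negative values mostly stem from fluorescent compounds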
# Target sequence (P07550 whole entry, looked up): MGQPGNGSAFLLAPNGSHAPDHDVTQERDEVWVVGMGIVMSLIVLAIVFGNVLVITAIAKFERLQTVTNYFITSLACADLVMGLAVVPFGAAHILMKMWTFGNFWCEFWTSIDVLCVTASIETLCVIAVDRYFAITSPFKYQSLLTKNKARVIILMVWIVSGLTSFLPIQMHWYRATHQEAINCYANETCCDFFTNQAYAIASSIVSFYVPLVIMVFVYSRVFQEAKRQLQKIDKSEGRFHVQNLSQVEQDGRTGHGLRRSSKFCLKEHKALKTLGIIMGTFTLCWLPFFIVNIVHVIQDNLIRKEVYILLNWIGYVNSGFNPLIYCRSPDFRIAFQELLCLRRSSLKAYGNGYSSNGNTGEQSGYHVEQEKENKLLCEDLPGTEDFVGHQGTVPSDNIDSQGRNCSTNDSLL
# Beta cell apopt: blocks beta cell apoptosis | protection from apoptosis, % (concentration not given with the values) | INS-1E cytokine-induced death, ATP luminescence, 48 h; percent of positive-control rescue, neutral wells zero | actives 0.8% (n = 300,000) | AID 435005;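 active = all replicates at 75% or more, or half of them and the mean; inconclusive = half reach 75% but not the mean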;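 note: 0% = cytokine-treated negative control wells and 100% = positive control rescue; higher means more ATP so stronger rescue from cytokine killing; wells of about 40 µL received 100 nL stock; the first replicate is given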
# LANA-H2B inh: blocks KSHV LANA binding to histone H2A/H2B | cell-free LANA-H2A/H2B peptide, fluorescence polarization | inhibition, % (concentration not given with the values) | AID 2629 | actives 0.6% (n = 320,000) | Q9QR71; in the data active = inhibition mostly above about 10%, no sharp cut-off; inactive = mostly below about 6.7%;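 note: stock transfer was 7.5 nL into about 10 µL; 0% = median of vehicle wells and 100% = median of positive control wells; one replicate is shown; the record names a cut of 25% in any replicate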
# UCH37 DUB inh: blocks the human deubiquitinase UCH37. Q9Y5K5. inhibition, % (test concentration not listed). purified proteasome/UCH37, Ub-AMC cleavage fluorescence. AID 588478. actives 0.33% (n = 330,000);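 active = mean of two replicates above 20%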;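 note: 0% = compound-free wells with enzyme and 100% = wells lacking proteasome; stock transfer was 100 nL into about 20 µL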
# Target sequence (Q9Y5K5 whole entry, looked up): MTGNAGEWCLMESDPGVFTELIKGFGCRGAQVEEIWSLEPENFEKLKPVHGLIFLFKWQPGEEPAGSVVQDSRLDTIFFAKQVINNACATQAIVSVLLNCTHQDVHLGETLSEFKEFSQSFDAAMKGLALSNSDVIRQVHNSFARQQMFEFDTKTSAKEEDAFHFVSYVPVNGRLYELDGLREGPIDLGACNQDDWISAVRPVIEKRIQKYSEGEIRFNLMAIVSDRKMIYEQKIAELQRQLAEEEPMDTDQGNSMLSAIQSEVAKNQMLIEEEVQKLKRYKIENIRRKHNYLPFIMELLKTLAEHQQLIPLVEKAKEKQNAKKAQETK
#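 assay system = human UCH37 enzyme supplied as purified proteasome complex | amount = proteasome at 0.15 nM in the dispensed enzyme solution | schedule = 30 min compound-proteasome preincubation then 25 min substrate reaction, room temperature | measured by = fluorescence, ex 355 nm, em 460 nm | benchmarks = no-proteasome wells (full inhibition) and compound-free wells (no inhibition)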
# Calb FLC: affects C. albicans growth with fluconazole; C. albicans CaCi-2 (fluconazole-resistant clinical isolate) + fluconazole, Alamar Blue growth, 48 h; growth inhibition, % (test concentration not listed); actives 0.57% (n = 300,000); AID 1979;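 active = most replicates above 75%; inconclusive = exactly half above 75%; inactive = most below 75%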;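 note: all wells also contain fluconazole at 8 µg/ml as a sub-toxic cotreatment; 0% = median of DMSO wells and 100% = median of geldanamycin control wells; wells of about 8 µL received 7.5 nL stock; the first replicate is given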
# Bfl-1 A1 inh: inhibitors of the anti-apoptotic protein A1, read as caspase activation; caspase activation, % (test concentration not listed); actives 0.066% (n = 330,000); MEF A1-2A-BIM cells, Caspase-Glo 3/7 luminescence, 3 h; percent of clofoctol response, vehicle zero;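 active = over half of replicate activation scores above 10%, or exactly half above 10 with the replicate mean above 10; inconclusive = replicate mean below 10 yet half the replicates above 10; inactive = over half of replicates below 10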;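 note: wells of about 30 µL received 50 nL stock; many hits fall short of the cut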
# An asterisk follows results filed as active; i = inactive; ? = inconclusive; nt = not tested or not shown.
SMILES,T cruzi repl,RanGTP-Impb inh,B2AR ag,Beta cell apopt,LANA-H2B inh,UCH37 DUB inh,Calb FLC,Bfl-1 A1 inh
CCOC(=O)C1=C(C)OC(N)=C(C#N)C1c1ccccc1 (stereo unspecified),-16,-5.2,5,-4,2.0,2.4,5,0.3
CC(C)Sc1nnc([C@H](Cc2c[nH]c3ccccc23)NC(=O)OC(C)(C)C)o1,13,-0.9,5,-5,-3.2,2.7,14,0.3
COc1cc(/C=C/CO)ccc1O[C@@H]1O[C@H](CO)[C@@H](O)[C@H](O)[C@H]1O,-13,0.8,3,-5,2.1,3.8,2,-0.8
CCN(c1ccc2c(c1)OCO2)S(=O)(=O)c1cc(Br)cc2c1N(C(=O)C1CC1)CC2,24,-4.1,38,10,1.0,3.3,-15,-0.3
Cc1cc(C)c(OCC(=O)N2CC=C(c3ccccc3)CC2)c(C)c1,3,3.6,-8,-7,-1.7,-0.4,-10,0.5
CCC(C)C(NC(=O)C1CCC(=O)N1C(=O)OCc1ccccc1)C(=O)NC(C(=O)N1CCCC1C(N)=O)C(C)CC (stereo unspecified),-10,2.9,0,3,1.6,1.0,-1,0.2
CN(C)c1ccc(C(=O)C(O)c2ccc(C(C)(C)C)cc2)cc1 (stereo unspecified),8,?,-7,14,-2.9,-29,-8,-0.2
O=C(NNC(=O)c1cccnc1)NC12CC3CC(CC(C3)C1)C2,0,1.2,-7,6,-4.3,3.8,-3,0.1
Cc1ccc(-n2c(C)nn(CC3CC3)c2=O)cc1,-19,2.0,1,-1,-438,-0.5,?,-0.8
Cc1ccc(N(Cc2ccccc2)C(=O)c2cc(S(=O)(=O)N3CCOCC3)ccc2N2CCCC2)cc1,27,2.9,9,3,-12,2.0,17,0.3
CCOC(=O)C1CCN(c2c(N3CCN(Cc4ccccc4)CC3)c(=O)c2=O)CC1,4,0.7,-2,1,6.4,2.8,-9,-0.3
COc1cc2c(cc1OC)-c1cc(Nc3ccc(C(=O)O)cc3)nc(=O)n1CC2,0,-1.7,-2,-2,-6.3,-73,3,0.6
NNC(=O)c1cc(-c2cccs2)nc2ccccc12,-26,1.4,-18,-4,3.1,-313,104*,-0.6
Cc1ccccc1NC(=O)Cn1nnc(C(=O)NCc2ccco2)c1N,-6,?,-2,-6,3.0,-5.0,-1,1.6
Cc1cc(C)cc(OCCNC(=O)c2cc(S(=O)(=O)N3CCOCC3)ccc2F)c1,17,?,12,2,1.0,0.2,-1,-0.3
O=C(NCCCN1CCCCC1)c1ccc(CS(=O)c2ccc(F)cc2)o1 (stereo unspecified),0,0.8,0,1,-3.3,1.4,-16,1.0
CCOC(=O)c1nsnc1NCCSC(=N)N,-26,-1.7,2,-2,-3.8,-111,-8,-1.2
Cn1ncc(Br)c1N1C(=O)CCC1=O,-10,2.1,-4,-5,2.1,-0.5,-4,-0.2
COc1ccc(S(=O)(=O)N2CCN(c3c(C)cccc3C)CC2)cc1OC,-3,?,-1,-7,-0.6,3.4,-4,1.0
CCOC(=O)c1ccc(N=C2NC(=O)CS2)cc1,3,-8.9,3,1,0.8,3.7,-22,-0.6
CC1=C(C(=O)N2CCN(C(=O)c3ccco3)CC2)C2(CCC(C)CC2)OC1=O (stereo unspecified),-8,-2.8,5,-4,-10,1.6,4,-0.8
COc1ccccc1-c1coc2cc(OC(=O)N3CCOCC3)ccc2c1=O,-1,-2.7,-4,-6,-1.2,0.9,8,0.6
CC1CCN(c2nc(-c3ccccc3)cc(C(F)(F)F)n2)CC1,5,2.8,0,nt,1.3,-37,?,0.1
O=C(CCC(=O)c1ccccc1)NCc1cccc(C(F)(F)F)c1,nt,nt,0,-4,4.0,2.0,nt,0.1
COCCNC(=O)COC(=O)c1cc(-c2ccc(OC)cc2)nc2ccccc12,0,-2.0,2,-1,-3.4,-88,6,-0.4
Cc1cc(NC(=O)c2ccccc2F)cc(C)c1OCC(=O)N1CCOCC1,-10,-0.4,0,-1,4.3,1.1,4,0.0
COc1ccc(CCNC(=O)C23CCC(C)(C(=O)C2Br)C3(C)C)cc1OC (stereo unspecified),6,-2.8,4,-1,-7.4,1.3,-2,0.8
COc1ccc2c(C)cc(SCC(=O)N3CCOCC3)nc2c1,4,-14,-36,-13,3.1,0.9,-2,2.6
COc1ccc(OC)c(/C=C/C(=O)OCC(=O)NCc2cccs2)c1,nt,nt,1,-1,3.3,-106,nt,1.1
O=C(CCO)c1ccc(O)cc1,-31,0.8,8,-4,4.5,2.5,1,-0.3
CCOc1ccc(N2C(N)=NC(N)=NC2(C)C)cc1,-8,?,-7,3,-0.6,3.5,-2,1.6
S=c1[nH]nc(-c2ccccc2)n1/N=C/c1cccc(Cl)c1,-2,3.2,5,-2,-7.0,nt,-6,-0.3
O=C(O)CSc1c2c(nc3cc(C(=O)Nc4cccc(C(F)(F)F)c4)ccc13)CCCC2,-23,3.7,-4,-4,-5.4,7.3,2,0.4
Cn1cccc1Cc1nnc(SCC(=O)NCc2ccco2)n1-c1ccc(F)cc1,3,-1.4,-7,-3,-10,-1.2,-1,-0.2
COCCNC(=O)CCSCc1ccccc1F,0,-5.0,-5,1,4.8,2.7,16,0.3
Cc1cc(C(=O)O)ccc1NCc1ccncc1,8,1.5,15,-4,-6.0,0.4,1,-0.2
Clc1ccccc1-c1cc(COc2ccc3ccccc3c2)no1,-5,3.4,-1,-4,1.0,0.5,-2,-0.7
Cc1c(C=C2C(=O)c3ccccc3C2=O)cc(C#N)n1C,-2,2.8,nt,-5,7.1,3.2,7,2.5
COc1ccc(OCCn2cnc3ccccc32)cc1,17,0.0,-3,-7,-4.8,1.9,0,-2.0
CC(C)NC(=O)c1ccc(-c2ccc(Cl)c(C(F)(F)F)c2)o1,22,-3.3,-12,-2,4.2,4.2,-2,0.0
COc1ccccc1C(=O)CSc1ccccn1,8,2.2,-6,1,-15,-0.5,2,-2.0
CCOC(=O)C1(CCCc2ccccc2)CCN(C(=O)CN2CCOC2=O)CC1,13,5.2,2,0,5.2,1.5,-22,-0.2
CCCCN1CCc2c([nH]c3c(C)cccc23)C1=O,11,-1.6,0,-6,3.6,-2.4,20,-0.5
CCOC(=O)c1oc2ccccc2c1COC(=O)C(C)NC(=O)c1ccco1 (stereo unspecified),nt,nt,7,1,0.5,-0.6,nt,-1.0
O=C(NC(=S)NCc1cccnc1)c1ccccc1,6,1.1,-10,4,0.8,0.7,11,0.2
Cc1c(-c2n[nH]c(=S)n2-c2ccc(C(F)(F)F)cc2)nnn1-c1ccccc1,-18,14,-7,1,-3.6,nt,19,-0.7
O=C(/C=C/c1ccc(O)cc1)OCc1occc(=O)c1O[C@@H]1OC(CO)[C@@H](O)[C@H](O)[C@@H]1O (stereo partly specified),-8,0.1,8,-1,1.8,3.6,-9,-0.2
CNS(=O)(=O)c1cccc(C(=O)OCc2cc(Cl)cc3c2OCOC3)c1,11,-2.3,3,-5,-1.7,1.4,-6,0.3
Cc1cc(SCC#N)n2nc(C)c(-c3ccc(Cl)cc3)c2n1,-6,0.3,-5,6,2.5,1.7,?,0.2
COc1ccc(C(c2c(NC(=O)c3ccccc3)sc(C)c2C)N2CCN(CCO)CC2)cc1 (stereo unspecified),12,7.2,2,-15,3.1,2.0,0,0.2
# The list goes on.
SMILES,T cruzi repl,RanGTP-Impb inh,B2AR ag,Beta cell apopt,LANA-H2B inh,UCH37 DUB inh,Calb FLC,Bfl-1 A1 inh
OCCNCc1c(OCc2ccc(Cl)cc2)ccc2ccccc12,25,3.9,26,9,-2.9,4.0,-12,0.2
CCN(CC)S(=O)(=O)c1ccc(N2CCCC2)c(NC(=O)C2CCCCC2)c1,?,3.6,-3,-2,-5.3,1.1,2,0.5
CC(C)(C)c1cc(CCC(=O)NN)cc(C(C)(C)C)c1O,14,-0.4,1,-7,1.4,1.1,-1,-0.6
O=C1OCCC1Sc1nnc(-c2cccnc2)n1-c1ccccc1F (stereo unspecified),-27,-2.1,-6,nt,4.7,4.0,-2,1.2
CCC(C)NC(=O)Cn1c(=O)n(-c2ccccc2)c(=O)c2ccc(C(=O)NCc3ccco3)cc21 (stereo unspecified),nt,nt,0,-3,3.5,-0.7,nt,0.4
COc1ccc(CC2S/C(=C(\C#N)C(=O)NCc3ccco3)N(c3ccc(C)cc3)C2=O)cc1 (stereo unspecified),-1,3.9,-4,-2,2.5,-0.5,0,-2.2
CCn1ncc(NC(=S)Nc2ccc(OC)c(OC)c2)c1C(N)=O,-23,3.2,3,-9,-3.3,-0.7,9,-0.1
Cc1ccc(NC(=O)NC2CCCCCCC2)c(C)c1,nt,nt,4,4,-0.1,5.7,112*,-1.2
CC(NS(=O)(=O)c1ccccc1)C(c1cccs1)N1CCOCC1 (stereo unspecified),-6,-2.1,-2,-4,1.9,2.4,0,0.8
O=C(CSc1nnc(CCCO)n1-c1ccccc1)NCCc1ccccc1,-11,4.3,-5,-1,1.0,1.8,-2,-0.3
N#C/C(=C\Nc1ccccc1SC(F)(F)F)c1nc(-c2ccccc2)cs1,22,-0.7,-5,4,1.6,9.3,-10,0.0
CCOc1c(C)cnc2c1c(=O)n(Cc1ccccc1F)c(=O)n2C,-5,-0.8,-8,8,-1.6,-1.1,7,0.2
CCOc1ccccc1N(CC(=O)Nc1ccccc1C(=O)O)S(C)(=O)=O,-14,5.8,0,-2,4.5,-0.2,5,1.4
Nc1ccccc1S(=O)(=O)NCCCCc1ccccc1,-18,-0.7,-10,0,1.0,2.4,3,-0.4
Cc1ccc2c(Cl)c(C(=O)NCC3CCCO3)sc2c1 (stereo unspecified),-5,7.3,-10,2,-8.8,4.7,5,-3.4
CC(=O)OC(C)(C)/C=C/C(=O)[C@](C)(O)C1[C@H](O)C[C@@]2(C)C3CC=C4C(C=C(O[C@@H]5O[C@H](CO)[C@@H](O)[C@H](O)[C@H]5O)C(=O)C4(C)C)[C@]3(C)C(=O)C[C@]12C (stereo partly specified),nt,nt,20,34,2.5,1.3,nt,-1.7
COc1ccc(COC(=O)c2cc([N+](=O)[O-])ccc2N2CCOCC2)cc1F,43,1.5,7,51,-8.2,6.1,7,-0.4
O=C(CCCNS(=O)(=O)c1cccc2nsnc12)NCCN1CCN(c2ccccc2F)CC1,-1,nt,-1,5,-0.3,2.9,-3,-0.6
CCC(C)C(NC(=O)OCc1ccccc1)C(=O)NCC(c1ccccc1)N(C)C (stereo unspecified),-2,-1.4,-1,1,-2.9,4.0,-14,0.0
CCN(CC)CCNC(=O)CCCNC(=O)Cn1cnc2sc(C)c(C)c2c1=O,-5,0.6,-13,1,-5.3,3.5,3,0.7
Cn1c(SCC(=O)NCc2cccs2)nnc1-c1ccc(S(=O)(=O)N2CCCC2)cc1,17,-2.7,1,nt,nt,5.4,-11,nt
C=CCNC(=O)c1cc2c(=O)n3ccccc3nc2s1,12,?,-19,9,1.4,i,14,-5.7
CCOC(=O)C1CCN(C(=S)Nc2cc(C)ccc2C)CC1,-5,3.2,1,0,13,1.6,?,-2.0

# Compound activity from PubChem BioAssay.
